From PubChem BioAssay
KCNQ2 pot = potentiators of rat KCNQ2 potassium channel; Potassium voltage-gated channel subfamily KQT member 2 (Rattus norvegicus), O88943; CHO-K1 KCNQ2, FluxOR thallium flux fluorescence; hits give high values; 310,000 compounds, 0.54% hits; B-score at 10 µM;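 active means fluorescence ratio B-score at least 3 SD of library B-scores, with initial fluorescence B-score within 3 SD, cut at about 5.3 in these data; same plate scores as AID 2156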;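 further: B-score of peak minus minimum over baseline fluorescence ratio after K+ and Tl+ stimulus; positive B-score means potentiation of KCNQ2 with more thallium influx and brighter signal; only the inactives scoring about 0 or higher are listed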
Target sequence (O88943 whole entry, looked up): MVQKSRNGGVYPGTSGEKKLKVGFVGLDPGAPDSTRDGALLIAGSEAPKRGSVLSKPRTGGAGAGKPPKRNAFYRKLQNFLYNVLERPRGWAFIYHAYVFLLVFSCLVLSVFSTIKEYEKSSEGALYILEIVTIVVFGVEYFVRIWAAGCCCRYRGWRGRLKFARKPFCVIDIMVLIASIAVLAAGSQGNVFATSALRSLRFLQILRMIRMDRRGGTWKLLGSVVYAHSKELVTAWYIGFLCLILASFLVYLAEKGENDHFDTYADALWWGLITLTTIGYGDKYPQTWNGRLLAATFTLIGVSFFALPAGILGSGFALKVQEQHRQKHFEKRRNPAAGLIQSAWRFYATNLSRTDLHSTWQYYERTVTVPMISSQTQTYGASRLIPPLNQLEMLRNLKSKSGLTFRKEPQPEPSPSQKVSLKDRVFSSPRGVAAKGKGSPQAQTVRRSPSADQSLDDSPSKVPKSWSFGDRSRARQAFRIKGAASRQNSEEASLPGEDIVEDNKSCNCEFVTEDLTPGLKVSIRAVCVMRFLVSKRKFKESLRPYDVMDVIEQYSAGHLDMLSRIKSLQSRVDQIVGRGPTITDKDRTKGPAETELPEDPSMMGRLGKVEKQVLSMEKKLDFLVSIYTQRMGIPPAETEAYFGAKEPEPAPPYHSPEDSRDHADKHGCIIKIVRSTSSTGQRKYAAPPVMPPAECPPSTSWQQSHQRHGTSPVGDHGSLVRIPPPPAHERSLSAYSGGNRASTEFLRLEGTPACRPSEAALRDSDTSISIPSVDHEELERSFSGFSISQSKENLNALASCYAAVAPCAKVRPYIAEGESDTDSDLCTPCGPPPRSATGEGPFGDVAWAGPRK
KCNQ2 pot baseline = further read-out of KCNQ2 pot, marked with its call; B-score; compound at 10 µM; measured here: initial fluorescence intensity artifact check;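 brightness before thallium and not channel activity; 0 = typical well and far values either way flag optical interference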
Numbers without * were called inactive.

Sample of the layout (13 entries):
KCNQ2 pot	KCNQ2 pot baseline	Compound
1.6	-0.34	CCc1ccc2nc(NC(=O)CCCc3cccs3)sc2c1
1.9	-0.14	Cc1cccc(-n2nnc3c(=O)n(Cc4ccccn4)cnc32)c1
0.2	-1.1	COCc1cc(CN2CCN(Cc3ccsc3)C(CCO)C2)ccc1OC (stereo unspecified)
0.14	0.09	CCCOC(=O)CSC1=C(C#N)C(c2ccc3c(c2)OCO3)CC(=O)N1 (stereo unspecified)
0.66	-0.2	Cc1c(S(=O)(=O)N2CCN(C(c3ccccc3)c3ccccc3)CC2)c(=O)n(C)c(=O)n1C
1.5	-0.91	Cc1ccccc1Nc1nc(N)nc(COC(=O)c2cccn2C)n1
0.11	0.09	O=C(NCc1ccco1)C(C(=O)c1ccccc1)n1ccccc1=O (stereo unspecified)
0.15	-0.14	CCN(CC(=O)Nc1c(F)cccc1F)C(=O)CCc1nc2sc3c(c2c(=O)[nH]1)CCCC3
0.01	0.62	CCOC(=O)/C(C#N)=C/c1cn(CCC(=O)O)nc1-c1cccc(Cl)c1
0.85	-0.32	COc1ccc(C(=O)Nc2cccc(/C(C)=N\NC(=O)c3ccoc3C)c2)cc1OC
2	-0.07	CCn1nc(C(=O)OCC(=O)NCC(C)C)c2ccccc2c1=O
0.46	-0.57	Cc1cc(NC(=O)COC(=O)CCNS(=O)(=O)c2cccc(C(F)(F)F)c2)no1
1.9	0.56	O=c1oc2cc(Oc3ccc(C(F)(F)F)cc3[N+](=O)[O-])ccc2c2c1CCCC2

All compounds of this part, repeating the preview:
KCNQ2 pot	KCNQ2 pot baseline	Compound
1.6	-0.34	CCc1ccc2nc(NC(=O)CCCc3cccs3)sc2c1
1.9	-0.14	Cc1cccc(-n2nnc3c(=O)n(Cc4ccccn4)cnc32)c1
0.2	-1.1	COCc1cc(CN2CCN(Cc3ccsc3)C(CCO)C2)ccc1OC (stereo unspecified)
0.14	0.09	CCCOC(=O)CSC1=C(C#N)C(c2ccc3c(c2)OCO3)CC(=O)N1 (stereo unspecified)
0.66	-0.2	Cc1c(S(=O)(=O)N2CCN(C(c3ccccc3)c3ccccc3)CC2)c(=O)n(C)c(=O)n1C
1.5	-0.91	Cc1ccccc1Nc1nc(N)nc(COC(=O)c2cccn2C)n1
0.11	0.09	O=C(NCc1ccco1)C(C(=O)c1ccccc1)n1ccccc1=O (stereo unspecified)
0.15	-0.14	CCN(CC(=O)Nc1c(F)cccc1F)C(=O)CCc1nc2sc3c(c2c(=O)[nH]1)CCCC3
0.01	0.62	CCOC(=O)/C(C#N)=C/c1cn(CCC(=O)O)nc1-c1cccc(Cl)c1
0.85	-0.32	COc1ccc(C(=O)Nc2cccc(/C(C)=N\NC(=O)c3ccoc3C)c2)cc1OC
2	-0.07	CCn1nc(C(=O)OCC(=O)NCC(C)C)c2ccccc2c1=O
0.46	-0.57	Cc1cc(NC(=O)COC(=O)CCNS(=O)(=O)c2cccc(C(F)(F)F)c2)no1
1.9	0.56	O=c1oc2cc(Oc3ccc(C(F)(F)F)cc3[N+](=O)[O-])ccc2c2c1CCCC2
0.34	1.6	OC(COCc1ccc(Cl)cc1)CN1CCc2ccccc2C1 (stereo unspecified)
0.19	1	C(=C\c1ccccc1)/C=N/N1CCN(c2ccccn2)CC1
0.13	-0.49	O=c1c(-c2ccnn2-c2ccc(F)cc2)cnc2n1CCS2
1.2	-0.42	CC(C)c1c(C(=O)N/N=C/C=C/c2ccccc2)nnn1-c1nonc1N
0.26	-0.9	COc1ccccc1Cc1nc(-c2ccncc2)no1
0.34	-0.7	CCN(CC)S(=O)(=O)c1ccc(NC(=O)CSc2nnc(-c3ccc(F)cc3)o2)cc1
0.85	-0.24	O=[N+]([O-])c1ccc2nc(-c3ccncc3)[nH]c2c1
0.13	-0.92	CC1(c2nnc(-c3cccc(Cl)c3)o2)CC(c2cccc([N+](=O)[O-])c2)=NO1 (stereo unspecified)
0.97	1.6	CNS(=O)(=O)c1ccc(OC)c(-c2nnc3c4ccccc4c(C)nn23)c1
1.3	-0.1	O=C(Cc1ccccc1)NC(=S)Nc1cc(C(F)(F)F)ccc1Cl
0.81	-0.14	CCn1cc(C(=O)N2CCc3ccccc3C2)c(=O)c2cc(S(=O)(=O)N3CCCCC3)ccc21
1.6	-1.1	CCOc1ccc(N/C=C/C(=O)c2ccccc2)c([N+](=O)[O-])c1
0.03	-1	CN(C)C(=O)CSc1nnc(CCN)o1
1.1	-0.07	Cc1nc(N)sc1C(=O)N1N=N1
0.53	-0.17	COc1cc(CN2CCC(C(=O)N3CCCC(C)C3)CC2)cc(OC)c1O (stereo unspecified)
1.2	0.27	COc1ccc(S(=O)(=O)N2CCC(C(=O)NCc3cccs3)CC2)cc1
1.5	0.52	O=C(/C=C/c1ccco1)Nc1ccccc1C(=O)O

A run of entries of the results above, as a working copy:
KCNQ2 pot	KCNQ2 pot baseline	Compound
1.2	0.27	COc1ccc(S(=O)(=O)N2CCC(C(=O)NCc3cccs3)CC2)cc1
1.5	0.52	O=C(/C=C/c1ccco1)Nc1ccccc1C(=O)O

Further records.
KCNQ2 pot	KCNQ2 pot baseline	Compound
0.04	1.8	COc1ccc(-c2nnc(SCC(=O)N(Cc3ccccc3)C(C)(C)C)o2)cc1OC
0.02	-1.6	Cc1ccc(NC(=O)c2ccc(OCC3CCCO3)cc2)cc1 (stereo unspecified)
0.12	1.8	CC1=NN(Cc2c(C)nn(Cc3ccccc3)c2C)C(C)(C)C1
0.48	-0.52	NS(=O)(=O)c1ccc(N=Nc2c(=O)[nH]n3c(=O)c4c([nH]c23)CCCC4)cc1
1.4	0.09	COc1cc(CNc2ccc(C)c(C)c2)cc(OC)c1OC
1.1	-0.48	CCN(CC)CC(=O)c1c[nH]c2ccccc12
0.65	0.29	O=C(CSc1ccc2nnc(CCNC(=O)c3ccccc3)n2n1)Nc1ccccc1
2.9	-1.5	CCC1CN(C(=O)N2CCC(C(=O)NCc3ccccc3OC)CC2)c2cc(C)ccc2O1 (stereo unspecified)
0.13	4	COC(=O)c1cccc(C(=O)N2CCCC(C(=O)c3ccccc3OC)C2)c1 (stereo unspecified)
0.1	-0.29	CCc1ccc2c(c1)C(=O)C(=O)N2CCS(=O)(=O)c1ccccc1
0.42	-0.96	COCCn1c(SCC(=O)Nc2ccc(C)cc2C)nc2c(oc3ccccc32)c1=O
0.07	1.3	C/C(=N\O)C(=O)Nc1ccccc1
0.25	0.43	O=C(CNC1CCCCC1)Nc1ccc(S(=O)(=O)N2CCCCC2)cc1
0.7	1.6	CC(NC(=O)C1CCN(S(=O)(=O)c2cccc3nonc23)CC1)c1ccccc1 (stereo unspecified)
2	0.71	c1ccc2c(C3=NNC(=NC4CCCCC4)SC3)c[nH]c2c1
0.21	-1.2	Nc1nncn1C(=O)c1ccccc1Cl
0.49	-0.96	CCOC(=O)c1sc(NC(=O)CCN2CC(C)OC(C)C2)c(C(=O)OCC)c1C (stereo unspecified)
0.81	-0.21	Cc1ccc(S(=O)(=O)n2cccc2C)cc1
0.01	-0.27	O=C1c2oc3ccccc3c(=O)c2C(c2cccc(O)c2)N1CCCN1CCOCC1 (stereo unspecified)
0.03	0.8	CC(C)CCNC(=O)c1ccc2c(SCC(=O)O)c3c(nc2c1)CCC3
0.77	-0.84	COc1ccc(-c2nn(-c3ccccc3)cc2C(=O)n2nnc3ccccc32)cc1
0.08	0.8	COc1ccc(C(=O)NCc2nc3ccccc3[nH]2)cc1OC
1.1	0.22	CCC(=O)Nc1ccc(OCc2nc3ccccc3s2)cc1
0.22	-0.03	O=C(NCc1ccccc1C(F)(F)F)C1CC(O)CN1C(=O)Nc1ccccc1 (stereo unspecified)
0.3	-0.02	O=C(NC1CCCCC1)NC1C2CC3CC(C2)CC1C3 (stereo unspecified)
0.35	-0.12	CC1CN(CC(=O)Nc2cc(S(=O)(=O)N3CCCC3)ccc2Cl)CC(C)O1 (stereo unspecified)
1.2	-0.7	CCCCc1ccc(NC(=O)OC)cc1
0.04	-0.72	CCOC(=O)C1=C(C)N=C2SCCC(=O)N2C1c1sccc1C (stereo unspecified)
0.2	-0.03	CCCCn1nnnc1SCC(=O)NCc1ccco1
1.1	-1.7	CCN(CC)S(=O)(=O)c1ccc(NC(=O)c2cc(C(=O)OC)cc([N+](=O)[O-])c2)cc1
0.62	0.22	C=CCNC(=S)N/N=C/c1ccc(-c2ccc(Cl)cc2Cl)o1
0.07	-1.5	NC(=O)C1CCN(C(=O)COCc2cc(-c3ccc4c(c3)OCO4)on2)CC1
1.9	0.24	CSc1nnc(COc2ccc(C)cc2)n1N
1.3	0.02	Cc1cc(C(=O)N(C)CC(=O)Nc2ccc(F)c(F)c2F)no1
0.15	2.1	Cc1ccc[n+](CC(=O)c2ccc(-c3ccccc3)cc2)c1
1	0.07	O=C(CCc1ccccc1)NNC(=O)CCc1ccccc1
0.02	0.04	CC(C)(C)Cc1cc(N)on1
1.6	0.63	CSc1nc(-c2ccc(Cl)cc2Cl)[nH]c(=O)c1C#N
1.1	0.5	Cc1ccccc1C(=O)Nc1ccnc(-c2ccncc2)n1
0.54	-0.01	Cc1ccc(NCCC#N)cc1C
0.71	-1.4	CCCn1c(N)c(N(CCOC)C(=O)CSCC(=O)Nc2cccc(C)c2)c(=O)[nH]c1=O
0.2	-0.53	CCCCNc1nc2ccccc2n1CC(=O)Nc1c(C)cccc1CC
0.29	0.42	COc1ccc2c(CC(=O)N[C@@H](Cc3ccccc3)C(=O)O)cc(=O)oc2c1
1.4	0.47	O=C(c1cc2ccccc2oc1=O)N1CCN(S(=O)(=O)c2ccccc2)CC1
1.4	0.5	O=C(CSc1ccc(Br)cc1)N1CCN(S(=O)(=O)c2ccccc2)CC1
0.05	0.11	Cc1nc(N2CCCCC2)c(C#N)c(C)c1[N+](=O)[O-]
0.15	1.7	COc1cccc(CNC(=O)CCC(=O)n2ncc3cc(C)ccc32)c1OC
0.9	-0.2	O=C(C[n+]1ccc(C(=O)NCc2ccccc2)cc1)c1ccc2c(c1)OCCO2
0.61	-4.6	OCC(CO)(CO)n1cnnn1
1.2	-3.2	Cc1ccc(NC(=O)C(C)SCC(=O)Nc2ccc(F)cc2)cc1S(=O)(=O)N1CCOCC1 (stereo unspecified)
1.8	-0.6	Cc1c(NC(=O)Nc2ccccc2Cl)sc(=S)n1C
0.8	0.1	COc1ccccc1NS(=O)(=O)c1ccc(C)c(NC(=O)NCCCl)c1
1.3	2.1	O=C(Nc1ccc(F)c(Cl)c1)Nc1cnccn1
1	-1.5	Cc1onc(-c2ccccc2Cl)c1C(=O)NC(=S)NCC(=O)c1ccccc1
0.61	2.4	COc1cccc(CNC(=O)C2CCC(=O)N(CCc3cccc(F)c3)C2)c1 (stereo unspecified)
0.76	-0.83	COc1cc(C(=O)OC2CCOC2=O)c([N+](=O)[O-])cc1OC (stereo unspecified)
3.3	0.53	O=C(NNC(=O)c1ccc(S(=O)(=O)N2CCOCC2)cc1)c1ccccc1
0.31	0	CC(Sc1nnnn1C1CCCCC1)C(=O)O (stereo unspecified)
0.02	0.05	O=c1c2ccccc2nc2ccc(NCc3ccco3)nn12
0.17	-1.3	CC(C)c1ccc(NC2CCCN(C(=O)c3ccc(N4CCOCC4)cc3)C2)cc1 (stereo unspecified)

New compounds follow.
KCNQ2 pot	KCNQ2 pot baseline	Compound
0.55	-0.31	CC(C)CCNC(=O)C(=O)Nc1ccc2c(c1)N(S(=O)(=O)c1cccs1)CCC2
0.91	-1.1	CCN1C(=O)c2cccc3c(S(=O)(=O)NCc4cccnc4)ccc1c23
0.89	-1.3	O=C(O)c1ccc(CS(=O)(=O)c2cccc(C(F)(F)F)c2)o1
0.35	1.9	O=C(CN(Cc1ccc(F)cc1)C(=O)CNS(=O)(=O)c1ccccc1)NCc1ccco1
0.66	-0.13	COc1ccccc1NC(=O)Nc1cccc(C(=O)O)c1
0.63	0.97	O=C(CSc1n[nH]c(-c2ccccc2F)n1)NCC(=O)Nc1ccc(F)c(F)c1F
0.73	-0.01	COc1ccccc1CNC(=S)NC1CCCC1
2	1.8	O=C(c1ccco1)N1CCN(C(c2ccccc2Cl)c2nnnn2CC2CCCO2)CC1 (stereo unspecified)
0.21	-2.3	CCNc1nc(NCC)n2c(SCC(=O)Nc3cccc(Cl)c3)nnc2n1
0.46	0.02	O=C1COc2ccc(S(=O)(=O)N3CCc4ccccc43)cc2N1
0.07	0.49	CCOc1ccc(C(CC(=O)O)NS(=O)(=O)c2ccc(C)cc2)cc1OC (stereo unspecified)
0.68	-0.06	COc1ccc(CN(C(=O)c2cccc(OC)c2)C2CCS(=O)(=O)C2)cc1 (stereo unspecified)
0.11	-0.16	CN(C)S(=O)(=O)c1cccc(NC(=O)COC(=O)/C=C/c2ccco2)c1
2.1	0.76	O=C(NNC(=O)c1ccccc1Br)c1ccncc1
0.17	-1	CCCN(C(=O)c1cc(S(=O)(=O)N2CCCCCC2)ccc1OC)C1CCS(=O)(=O)C1 (stereo unspecified)
1.1	-3.4	O=C(NCCN1CCN(c2ccccc2)CC1)c1cccn2c(=O)c3ccccc3nc12
1.7	-1.9	CC1(C)Cc2c(c(N3CCOCC3)nc3sc4c(NCC5CCCO5)nnnc4c23)CS1 (stereo unspecified)
0.38	1.1	CCO[C@H]1OC(C(=O)O)=C[C@@H](c2ccc3c(c2)OCO3)[C@@H]1CCCO
1.4	0.01	Nc1nc(CSCc2ccccc2)nc(N2CCOCC2)n1
0.7	-0.68	Cc1ccc(-c2cnn(-c3cccc(C(F)(F)F)c3)c2N)cc1
1.9	-0.07	C/C(Cc1ccccc1)=N\NC(=O)CNC(=O)c1ccccc1O

This is a subset. The share of hits here may be higher or lower than overall.
